HPGD block = qHTS Assay for Inhibitors of HPGD (15-Hydroxyprostaglandin Dehydrogenase). purified HPGD, NADH fluorescence kinetic, PGE2 substrate. Potency, µM, for the others: at the top dose activity change, negative = inhibition, usual class: inhibitors. 4.3% of 150,000 active; active = well fitted inhibition curve with a large enough effect (not every such curve was filed as active); inconclusive = small, poorly fitted or top-dose-only effect, or another doubt; inactive = no such curve, though single readings can be large or run the other way;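 also: top concentration of the series not given in the record; plate controls included wells without enzyme; inactives centre near -10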
Target sequence (P15428 whole entry, looked up): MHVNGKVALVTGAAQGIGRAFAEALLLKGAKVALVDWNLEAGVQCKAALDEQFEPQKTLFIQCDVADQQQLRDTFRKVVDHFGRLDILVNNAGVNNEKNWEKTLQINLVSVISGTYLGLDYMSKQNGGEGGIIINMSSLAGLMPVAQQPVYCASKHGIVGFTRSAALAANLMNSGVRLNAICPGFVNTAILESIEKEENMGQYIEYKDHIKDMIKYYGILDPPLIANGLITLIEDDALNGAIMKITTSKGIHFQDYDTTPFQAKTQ
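20 nM HPGD preincubated 15 min at room temperature with compound in 50 mM Tris-HCl pH 8, 0.01% Tween 20. Started with 1 mM NAD+ and 30 uM prostaglandin E2; NADH fluorescence (360/450 nm) read 5 times over 30-s intervals, last minus first.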
Active calls of the source: *; ? = inconclusive; [ ] = dose if it differs, or a comment. % is scaled to controls: 0 for no effect and ±100 for the full control effect; potency is read from the fitted curve at half-maximal effect.

O=C(Nc1ccccc1)c1ccc(S(=O)(=O)NCC2CCCO2)cc1 (centres undefined)
  HPGD block: -8%

COC(=O)c1cc2occc2n1CC(=O)Nc1ccc(C)cc1C
  HPGD block: -7%

CCCc1cc(C(=O)Nc2ccc(C(C)=O)cc2)no1
  HPGD block: -11%

O=S(=O)(c1ccccc1)c1nc(-c2ccco2)oc1NCCCn1ccnc1
  HPGD block: -23%

CSc1oc(-c2ccccc2)nc1C(N)=O
  HPGD block: -17%

Cc1ccc(C(=O)Nc2cccc(C(=O)N3CCOCC3)c2)cc1
  HPGD block: -7%

O=C(O)c1cc([N+](=O)[O-])ccc1C(=O)Nc1ccccc1
  HPGD block: 0%

CC1=C(C(=O)Nc2ccccc2F)C(c2ccsc2)C2=C(CC(C)(C)CC2=O)N1 (centres undefined)
  HPGD block: ?

C=CCOc1c(Cl)cc(/C=N/O)cc1OC
  HPGD block: -18%

CC(N=C1NS(=O)(=O)c2ccccc21)C(=O)NCc1ccc2c(c1)OCO2 (centres undefined)
  HPGD block: -8%

O=C(NCc1ccc(Cl)cc1)c1cc(-c2cccs2)on1
  HPGD block: -6%

Cc1cc(C)nc(N2CCCC(C(=O)Nc3cc(F)ccc3C)C2)n1 (centres undefined)
  HPGD block: -8%

CCCOc1ccc2c3c(c(=O)oc2c1)CCCC3
  HPGD block: ?

Cc1ccc(-c2c(C#N)c(N)nc3c2CCCC3)s1
  HPGD block: 62%[activator]

CCCN1C(=O)C(NC(C)=O)c2ccccc21 (centres undefined)
  HPGD block: -3%

Molecules listed so far with four or more nitrogen atoms (two):
O=S(=O)(c1ccccc1)c1nc(-c2ccco2)oc1NCCCn1ccnc1
  HPGD block: -23%

Cc1cc(C)nc(N2CCCC(C(=O)Nc3cc(F)ccc3C)C2)n1 (centres undefined)
  HPGD block: -8%

Further structures
COc1cc(CNc2ccc(O)cc2)cc(Br)c1OCc1ccccc1F
  HPGD block: -11%

CCN(C(=O)COC(=O)c1cc(NS(=O)(=O)c2ccc(Cl)c([N+](=O)[O-])c2)ccc1O)C1CCCCC1
  HPGD block: -8%

CCCNC(=O)COC(=O)CCC(=O)c1cccs1
  HPGD block: -8%

C/C(=C1/SC(N2CCOCC2)=NC1=O)c1ccc(Br)cc1
  HPGD block: -8%

Cc1ccc2nc(SCC(=O)N3c4ccccc4CC3C)c(C)cc2c1 (centres undefined)
  HPGD block: -28%

CC(C)N(Cc1nc(-c2ccccc2)no1)C(=O)C(C)(C)C
  HPGD block: 0%

COc1cc2c(c(OC)c1OC)C(c1ccccc1C)CC(=O)O2 (centres undefined)
  HPGD block: -27%

Cc1c(S(=O)(=O)N2CCN(c3cccc(C(F)(F)F)c3)CC2)c(=O)n(C)c(=O)n1C
  HPGD block: -1%

Cc1nc2ccccc2cc1OCc1ccccc1
  HPGD block: -9%

CCC(Cc1ccccc1)NC(=O)C1CCC(CNc2c(N3CCCC3)c(=O)c2=O)CC1 (centres undefined)
  HPGD block: -8%

Fc1cccc(CN2CCN(c3ncccn3)CC2)c1
  HPGD block: -14%

Cc1ncc(CC(=O)n2cc(C(=O)c3cc(F)ccc3O)cn2)s1
  HPGD block: -15%

NC(=O)c1ccccc1O
  HPGD block: ?

CC(Sc1ccc(Br)cc1)C(N)=O (centres undefined)
  HPGD block: 1%

COc1cccc(CN(C)c2nc(-c3cccs3)nc3ccccc23)c1
  HPGD block: ?

The final three entries of the part above come first, to join the parts:
NC(=O)c1ccccc1O
  HPGD block: ?

CC(Sc1ccc(Br)cc1)C(N)=O (centres undefined)
  HPGD block: 1%

COc1cccc(CN(C)c2nc(-c3cccs3)nc3ccccc23)c1
  HPGD block: ?

CC(C)N(Cc1ccccc1)S(=O)(=O)c1n[nH]c(C(C)(C)C)n1
  HPGD block: -3%

O=C(NCCC1=CCCCC1)C(=O)c1c[nH]c2ccccc12
  HPGD block: -15%

COc1ccc(Cc2nnc(NC(=O)Cc3cccs3)s2)cc1
  HPGD block: -23%

CC1=C(CC(=O)O)c2cc(F)ccc2/C1=C\c1ccc(S(C)(=O)=O)cc1
  HPGD block: -17%

c1ccc(C(CCN2CC3CCC(CC3)C2)c2ccccc2)cc1
  HPGD block: -6%

CCC(C)c1ccc(-c2cc(C(=O)OCC(=O)Nc3cc(C)on3)c3ccccc3n2)cc1 (centres undefined)
  HPGD block: ?

CN(C)CCNC(=O)C(C(=O)c1ccccc1)n1ccccc1=O (centres undefined)
  HPGD block: -4%

CCC(=O)N1CCCc2cc(S(=O)(=O)NCc3cccs3)ccc21
  HPGD block: -7%

Cc1ccc(-c2nc3ccccc3c(=O)n2CCCN2CCOCC2)cc1
  HPGD block: -5%

CCC/C=N/NC(=O)c1[nH]c2c([N+](=O)[O-])cccc2c1C
  HPGD block: -6%

Oc1ccc(N=Nc2c(O)ccc3ccccc23)cc1
  HPGD block: -26%

O=C(OCCN1C(=O)c2ccccc2C1=O)c1cccs1
  HPGD block: -9%

Cc1c(NC(=O)C(=O)/C=C(\O)c2ccc(Br)cc2)c(=O)n(-c2ccccc2)n1C
  HPGD block: -4%

CC1CCCC(C)N1S(=O)(=O)c1ccc(S(=O)(=O)NCCc2ccncc2)cc1 (centres undefined)
  HPGD block: 5%

COC(=O)c1ccc(Nc2nnc(-c3ccc(C)c(S(=O)(=O)NCC4CCCO4)c3)c3ccccc23)cc1 (centres undefined)
  HPGD block: ?

COc1cc(S(=O)(=O)N2CCCCCC2)ccc1-n1cnnn1
  HPGD block: -7%

CCC(=O)Nc1ccc2ccccc2c1
  HPGD block: -1%

O=c1c2cc(N3CCOCC3)ccc2[nH]c(=S)n1CCCN1CCCCCC1
  HPGD block: -23%

O=c1c(-c2cccs2)nc2cnc(Oc3cccc(Cl)c3)nc2n1C1CC1
  HPGD block: ?

Cc1ccccc1CN1C(=O)CSc2ccc(C(=O)N3CCOCC3)cc21
  HPGD block: -2%

O=C(CC1OC(=O)c2ccccc21)Nc1ccccc1N1CCOCC1 (centres undefined)
  HPGD block: -3%

CCCNc1nc2c(c(=O)n(C)c(=O)n2C)n1Cc1cccc(C)c1
  HPGD block: -10%

COC(=O)c1ccc(C2/C(=C(\O)c3cccc(OC)c3)C(=O)C(=O)N2CCCN(C)C)cc1 (centres undefined)
  HPGD block: -15%

CCCCn1c(SCC2CCCO2)nc2cc(S(N)(=O)=O)ccc21 (centres undefined)
  HPGD block: -1%

COc1ccc(CCNC(=O)CCN2C(=O)C3CC=CCC3C2=O)cc1OC (centres undefined)
  HPGD block: -8%

CC(CC(=O)Nc1ccncc1)c1ccccc1 (centres undefined)
  HPGD block: -1%

Nc1nc2ccccc2nc1N1CCCC1
  HPGD block: -8%

Cc1cc2ccccc2nc1SCC(=O)N1c2ccccc2CC1C (centres undefined)
  HPGD block: -8%

CCSc1nnc(Cn2c(=O)sc3ccccc32)n1-c1ccccc1C
  HPGD block: -8%

O=C(O)CCn1cnc2ccccc2c1=O
  HPGD block: -4%

CC1(C(=O)NC2CCCC2)CCC(=O)N1Cc1ccccc1 (centres undefined)
  HPGD block: -2%

CC(C)NC(=O)NC(=O)CSc1ccccc1F
  HPGD block: -5%

Cc1ccc(-c2csc3nnc(SCC(=O)N4CCN(Cc5ccccc5)CC4)n23)cc1
  HPGD block: -12%

CCN(CC)S(=O)(=O)c1ccc2oc(C(=O)NC3CCCc4ccccc43)c(C)c2c1 (centres undefined)
  HPGD block: -18%

O=C(Nc1ccc(N2CCN(Cc3ccccc3)CC2)cc1)c1ncn[nH]1
  HPGD block: -13%

O=C(O)C1C(c2ccccc2)C(C(=O)OCc2ccco2)C1c1ccccc1 (centres undefined)
  HPGD block: -11%

Cc1ccc(/C=C/C(=O)N2CCCC(C)C2)cc1 (centres undefined)
  HPGD block: 1.6µM*

CCCC(=O)OCCNc1cc(Sc2nc3ccccc3[nH]2)c2nonc2c1[N+](=O)[O-]
  HPGD block: 7.9µM*

Cc1ccc(OCc2ccc(C(=O)O)o2)c([N+](=O)[O-])c1
  HPGD block: -18%

O=C(O)c1ccc2nc(-c3ccccc3)c(-c3ccccc3)nc2c1
  HPGD block: ?

C=C(C)C(=O)/C=C/c1ccc(Br)cc1
  HPGD block: -3%

O=C1N=C(N2CCOCC2)S/C1=C/c1cccs1
  HPGD block: -14%

CON1C(=O)C(=O)N(OC)C2CCCCC21 (centres undefined)
  HPGD block: -4%

Cc1cc(C(=O)OCC(=O)c2ccc(Br)s2)no1
  HPGD block: ?

CS(=O)(=O)N(CC(=O)NCCC1=CCCCC1)C1CCCCC1
  HPGD block: 2%

CCOc1ccc(C(=O)NCc2ccncc2)cc1OCC
  HPGD block: -13%

Clc1nnc(NN=C2CCCC2)c2ccccc12
  HPGD block: -14%

C=CCNC(=O)C1CC(=O)N(c2ccc(OCC(=O)Nc3ccccc3)cc2)C1 (centres undefined)
  HPGD block: -26%

C=CCn1c(=O)/c(=C/c2ccc(C)o2)s/c1=C(/C#N)C(=O)c1ccccc1
  HPGD block: -12%

O=C(CSc1nc2ccccc2c(=O)n1CCCC(=O)N1CCCC1)NCc1ccco1
  HPGD block: -5%

COC(=O)[C@H](CCSC)NC(=O)Nc1ccc(OC)cc1OC
  HPGD block: -14%

COc1ccc(NS(=O)(=O)Cc2ccccc2Cl)cn1
  HPGD block: -21%

COCc1cc(C)nc(NC2CCCCC2)c1C#N
  HPGD block: ?

CC(=O)N1CCc2cc(S(=O)(=O)NCCC(=O)NC3CCCc4ccccc43)ccc21 (centres undefined)
  HPGD block: -17%

COc1ccc(NC(=O)C23CCC(C)(C(=O)C2)C3(C)C)cc1 (centres undefined)
  HPGD block: -2%

CC1CC(C)CN(C(=O)Cn2c(=O)n(CCCCC(=O)NC3CCCC3)c(=O)c3ccccc32)C1 (centres undefined)
  HPGD block: -24%

COc1ccc(-c2cc(-c3ccccc3)nc(-c3ccc4c(c3)NC(=O)CO4)c2)cc1
  HPGD block: ?

Cc1cccc(Nc2nc(N)c([N+](=O)[O-])c(N3CCC(C)CC3)n2)c1
  HPGD block: -6%

O=C(Nc1cccc2ccccc12)N1CC=C(c2ccccc2)CC1
  HPGD block: -17%

CNC(=O)c1ccsc1NC(=O)c1sc2ccccc2c1Cl
  HPGD block: ?

COc1ccc2c(c1)CCc1c(C(=O)NCc3ccco3)noc1-2
  HPGD block: 12%

O=C(NCCc1c[nH]c2ccccc12)C(=O)NCC(c1ccco1)N1CCN(c2ccc(F)cc2)CC1 (centres undefined)
  HPGD block: -6%

CCOc1cc(C)c(S(=O)(=O)NC2CCCCC2)cc1C
  HPGD block: -11%

O=C(NN1C(=O)c2ccccc2NC1c1ccccc1OCc1ccccc1)c1ccncc1 (centres undefined)
  HPGD block: -6%

Nc1nc(Sc2ccc(C(F)(F)F)cc2[N+](=O)[O-])n[nH]1
  HPGD block: -8%

Cc1cc(C)c2cc(CN(CCN3CCCC3)C(=O)Nc3ccc(F)cc3)c(=O)[nH]c2c1
  HPGD block: -11%

O=c1oc2ccccc2cc1-c1csc(NN=C2CCCC2)n1
  HPGD block: -10%

CC(C)OCCCN(CC(O)c1ccccc1)CC(O)c1ccccc1 (centres undefined)
  HPGD block: -6%

Cn1c(N)c(C(=O)COC(=O)CNS(=O)(=O)c2cccc(Cl)c2)c(=O)n(C)c1=O
  HPGD block: -6%

COc1ccc(-n2c(Cc3cc(=O)[nH]c(=O)[nH]3)nnc2SCC(=O)Nc2ccccc2)cc1
  HPGD block: -4%

Cc1cc(C(=O)N/N=C/c2ccc(-c3cccc(Cl)c3Cl)o2)n[nH]1
  HPGD block: -30%

Cc1cc2n(n1)C(c1ccc3c(c1)OCO3)Nc1c(C)cccc1-2 (centres undefined)
  HPGD block: ?

O=C1C=C(NCc2ccco2)C2(CCCCC2)O1
  HPGD block: -4%

O=C(Nc1ncn[nH]1)c1ccc(Cl)c(S(=O)(=O)Nc2ccc(Cl)cc2)c1
  HPGD block: -18%

O=C(C(NS(=O)(=O)c1cccs1)c1ccccc1)N1CCN(c2ccccc2F)CC1 (centres undefined)
  HPGD block: -2%

Cc1[nH]c(=O)[nH]c(=O)c1CSc1nnc(CCCCCNC(=O)OC(C)(C)C)o1
  HPGD block: 25µM*

Cc1ccc(S(=O)(=O)NCCCCCC(=O)Nc2cccc(C)c2)cc1
  HPGD block: -5%

Cc1cccc(CSc2ccc3nnc(-c4cccs4)n3n2)c1
  HPGD block: -14%

Cc1cc(C(=O)CSc2nc3ccccc3[nH]2)c(C)n1C
  HPGD block: -30%

CC(C)NC(=O)CN(Cc1ccccc1)S(=O)(=O)c1ccccc1
  HPGD block: 2%

CC(C)(C)c1ccc(OCC(O)CS(=O)(=O)c2ccccn2)cc1 (centres undefined)
  HPGD block: -9%

O=C(CCc1nc2ccccc2[nH]1)N1CCc2ccccc2C1
  HPGD block: -18%

COC(=O)CCC(=O)COc1ccccc1C#N
  HPGD block: 14µM*

COc1cc2c(cc1NS(=O)(=O)N1CCCC1)oc1ccccc12
  HPGD block: 13%

CCOc1ccc(-c2cc(N)n(S(=O)(=O)c3ccc(OC)cc3)n2)cc1
  HPGD block: -3%

CCOC(=O)n1c(=O)n(Cc2ccccc2)c2ccccc21
  HPGD block: -2%

COc1ccccc1OCCCCNC(C)(C)C
  HPGD block: -13%

CC/C(=C/c1sc2ccccc2[n+]1CC)SC
  HPGD block: -6%

CCn1cc(Br)c(C(=O)Nc2ccc(Cl)c(Cl)c2)n1
  HPGD block: -21%

O=c1c(Cc2ccc(Cl)cc2Cl)c(O)ccn1Cc1ccc(Cl)cc1
  HPGD block: ?

CC(=O)N1CCC(=NNS(=O)(=O)c2cccc([N+](=O)[O-])c2)CC1
  HPGD block: -14%

COc1ccc(/C=C/C(=O)NC(=S)Nc2ccc(S(=O)(=O)Nc3ccc(OC)nn3)cc2)cc1
  HPGD block: -30%

CC1(C)NC(=O)N(CC(O)COc2ccccc2C(=O)N2CCCCC2)C1=O (centres undefined)
  HPGD block: -8%

Screening data deposited in PubChem BioAssay by National Center for Advancing Translational Sciences (NCATS).

Not all compounds are listed. The share of hits here may be higher or lower than overall.
